Screens: PubChem, Broad Institute
T cruzi repl: blocks replication of Trypanosoma cruzi | T. cruzi beta-gal in NIH3T3, luminescence, 90 h | inhibition, % (no concentration beside the values) | actives 1.4% (n = 300,000) | AID 1885;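 active means mean inhibition across valid replicates above about 55%, limit read from the data; inconclusive means mean below that limit but half or more replicates reach it; inactive means mean below it, under half of replicates reach it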;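 further: signal also drops with host cell toxicity which is not excluded here; 0% = plate median of DMSO wells and 100% = zero luminescence signal; higher percent means less beta-gal luminescence so fewer parasites; stock transfer was 50 nL into about 50 µL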
FGF22 binding: binders of recombinant human FGF22 by thermal shift. Q9HCT0. SYPRO orange fluorescence; percent of sucrose octasulfate shift, DMSO zero. calls only at 9.99 µM. actives 1.5% (n = 340,000);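 active means melting point raised past a set limit in the mean and every replicate; inconclusive means no clear call; three in four hits are not shown here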
Target sequence (Q9HCT0 whole entry, looked up): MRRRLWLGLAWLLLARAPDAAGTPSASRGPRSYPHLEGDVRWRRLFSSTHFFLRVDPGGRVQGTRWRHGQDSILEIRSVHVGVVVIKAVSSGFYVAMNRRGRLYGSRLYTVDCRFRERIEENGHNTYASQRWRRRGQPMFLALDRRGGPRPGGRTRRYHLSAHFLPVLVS
RanGTP-Imp inh: disruptors of Ran-importin-beta complex formation – biochemical, FRET, CFP-Ran, YFP-importin-beta, homogeneous, primary screen. AID 2216. inhibition, % (test concentration not listed). cell-free CFP-Ran/YFP-importin-beta FRET ratio. actives 1.1% (n = 300,000);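 active means most replicates above 15%; inconclusive means exactly half above 15%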;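 further: 0% = DMSO wells and 100% = Ran loaded with GDP instead of GTP; wells of about 40 µL received 100 nL stock; the first replicate is given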
ALR H2O2 inh: human ALR oxidase inhibition via reduced H2O2; purified ALR, DTT oxidation, H2O2 HRP-luminol luminescence; inhibition, % (concentration not given with the values); P55789; AID 485317; actives 3.8% (n = 290,000);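 active means mean and each replicate at 75% or more; inconclusive means only one of the two met; inactive means neither met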;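 further: stock transfer was 7.5 nL into about 7.5 µL; 0% = neutral wells and 100% = wells with inactivated enzyme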
Target sequence (P55789 whole entry, looked up): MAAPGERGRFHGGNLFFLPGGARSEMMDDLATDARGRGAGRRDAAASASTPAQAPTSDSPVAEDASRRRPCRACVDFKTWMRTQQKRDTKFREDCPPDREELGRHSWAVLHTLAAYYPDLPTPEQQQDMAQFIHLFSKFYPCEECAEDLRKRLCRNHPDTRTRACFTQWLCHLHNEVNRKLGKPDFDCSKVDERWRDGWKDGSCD
Beta apoptosis: blocks beta cell apoptosis; INS-1E cytokine-induced death, ATP luminescence, 48 h; percent of positive-control rescue, neutral wells zero; protection from apoptosis, % (test concentration not listed); actives 0.8% (n = 300,000); AID 435005;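 active means all replicates at 75% or more, or half of them and the mean; inconclusive means half reach 75% but not the mean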;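 further: 0% = cytokine-treated negative control wells and 100% = positive control rescue; higher means more ATP so stronger rescue from cytokine killing; wells of about 40 µL received 100 nL stock; the first replicate is given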
Calb FLC: C. albicans growth modulation with fluconazole; C. albicans CaCi-2 (fluconazole-resistant clinical isolate) + fluconazole, Alamar Blue growth, 48 h; growth inhibition, % (concentration not given with the values); actives 0.57% (n = 300,000); AID 1979;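 active means most replicates above 75%; inconclusive means exactly half above 75%; inactive means most below 75%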;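 further: all wells also contain fluconazole at 8 µg/ml as a sub-toxic cotreatment; 0% = median of DMSO wells and 100% = median of geldanamycin control wells; wells of about 8 µL received 7.5 nL stock; the first replicate is given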
Ecoli rRNA inh: inhibits bacterial ribosomal RNA function over humanized ribosomes; actives 1.6% (n = 350,000); GFP signal change (wild-type ribosome), % (test concentration not listed); E. coli WT GFP vs humanized-ribosome RFP mutants, fluorescence, 24 h; stronger effect = lower value; DMSO median 0, no signal -100;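 active means significant combined selectivity score with lowered wild-type GFP, culture density cut under 30%, mutant RFP and density less affected; inactive means any of these conditions unmet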; further: one replicate is shown; some compounds called inactive have numbers as strong as hits
AF4-AF9 inh: blocks AF4 peptide binding to human AF9 | P42568 | AlphaScreen, biotin-AF4 peptide binding to FLAG-AF9 | inhibition, % at 10 µM | actives 0.47% (n = 350,000) | AID 651704;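 active means every replicate reaching a set inhibition limit, whatever the replicate mean, cut at about 25% in these data; inconclusive means mean inhibition reaches that limit but some replicates miss it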;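 further: 0% = plate neutral control median and 100% = total signal loss; the record names both 10 and 1 µM as test concentration; the first replicate is given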
Target sequence (P42568 whole entry, looked up): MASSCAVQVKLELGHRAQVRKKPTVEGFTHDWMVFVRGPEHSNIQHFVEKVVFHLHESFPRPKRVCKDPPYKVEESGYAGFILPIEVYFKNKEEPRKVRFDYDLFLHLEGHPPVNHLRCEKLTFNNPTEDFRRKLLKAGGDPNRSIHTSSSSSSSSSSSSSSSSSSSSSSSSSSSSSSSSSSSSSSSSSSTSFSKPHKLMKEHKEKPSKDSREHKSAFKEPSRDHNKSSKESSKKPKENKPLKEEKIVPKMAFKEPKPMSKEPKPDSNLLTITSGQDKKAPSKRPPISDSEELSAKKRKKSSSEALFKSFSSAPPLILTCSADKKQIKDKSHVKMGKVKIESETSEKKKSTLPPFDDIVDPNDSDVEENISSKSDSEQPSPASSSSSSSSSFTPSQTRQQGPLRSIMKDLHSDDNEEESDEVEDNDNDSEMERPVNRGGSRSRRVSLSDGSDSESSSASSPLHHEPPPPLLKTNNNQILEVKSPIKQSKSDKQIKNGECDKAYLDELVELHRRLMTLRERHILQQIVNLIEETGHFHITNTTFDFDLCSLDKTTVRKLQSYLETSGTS
Ecoli rRNA inh OD600: further read-out of Ecoli rRNA inh, marked with its call; OD600 change, %; measured here: OD600 growth;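 optical density of the mix in the first replicate; 0 = DMSO median and -100 = no signal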
Ecoli rRNA inh RFP: recorded beside Ecoli rRNA inh, whose call it bears; RFP signal change, %; measured here: RFP humanized mutant strains;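 first replicate; 0 = DMSO median and -100 = no signal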
* hit, by the source's call; i = inactive; ? = inconclusive; nt = no result given. Some of the compounds tested, so the mix of outcomes need not match the whole.

SMILES | T cruzi repl | FGF22 binding | RanGTP-Imp inh | ALR H2O2 inh | Beta apoptosis | Calb FLC | Ecoli rRNA inh | Ecoli rRNA inh OD600 | Ecoli rRNA inh RFP | AF4-AF9 inh
Cc1cc(C(=O)N/N=C/c2ccc(-c3ccc([N+](=O)[O-])cc3Cl)o2)n[nH]1 | 29.6 | i | -34.5 | -24.5 | 2.5 | -2.0 | -31.8* | 8.7* | 12.6* | 0.0
O=C(NCCN1CCOCC1)c1c[nH]c2ccc(S(=O)(=O)N3CCOCC3)cc2c1=O | -21.2 | nt | 2.9 | -4.2 | -7.8 | 3.4 | nt | nt | nt | nt
FC(F)(F)c1ccc(C2[C@H]3CN(Cc4cccnc4)[C@H](c4ccccc4)C34CC2(c2ccccc2)C4)cc1 (stereo not given in full) | 43.5 | i | 0.4 | -16.5 | 20.9 | 2.6 | 0.9 | -4.5 | -17.7 | -16.1
CCn1ccnc1CN(C)C(=O)c1cc(COc2ccc(Cl)cc2OC)on1 | -4.8 | i | 3.6 | -4.5 | -3.4 | -9.1 | 2.1 | 0.2 | -1.7 | 0.0
Cn1c(=O)[nH]c(=O)c2c1nc(N1CCNCC1)n2CCOc1ccccc1 | -16.2 | nt | -2.4 | 10.3 | -0.6 | -13.1 | nt | nt | nt | nt
O=C(CCNS(=O)(=O)c1ccc(Br)cc1)NC1CCCCC1 | -3.6 | i | 0.0 | -3.3 | 4.3 | -6.1 | 6.4 | 10.6 | -0.4 | -0.3
CCOc1ccc(-c2cc(C(=O)N3CCN(C)CC3)c3ccccc3n2)cc1 | 3.8 | nt | 0.2 | 5.4 | 5.1 | -9.3 | 3.0 | -1.6 | -0.4 | nt
O=C(CSc1ccccn1)N1CCCC(Nc2ccccc2)C1 (stereo not given) | 9.0 | i | 3.2 | nt | nt | 2.2 | 4.3 | 6.0 | 0.1 | -0.3
Nc1ccc[n+](CC(=O)c2ccccc2)c1 | -1.4 | i | 0.7 | 9.6 | -5.9 | 4.5 | 20.3 | 8.7 | 8.9 | 4.1
COc1ccc(Br)cc1CN1CCCCCCC1 | 23.6 | i | 0.3 | 5.0 | 0.4 | 2.5 | 10.9 | 6.4 | -2.8 | -1.1
O=C(CNc1ccccc1)N/N=C/c1ccc([N+](=O)[O-])cc1 | -11.4 | nt | 0.2 | -5.0 | -2.7 | 6.8 | nt | nt | nt | nt
CCOC(=O)[C@@H]1[C@H]2COc3cc(OC)ccc3[C@@H]2N2C(=O)N(c3ccc(C)cc3)C(=O)[C@@]12C | -13.7 | i | -0.3 | 15.5 | -5.6 | -1.3 | 4.9 | -4.8 | -0.6 | 1.5
CCS(=O)(=O)N1CCN(c2c(Cl)cccc2[N+](=O)[O-])CC1 | 0.8 | nt | 4.3 | -2.8 | -4.0 | -1.3 | nt | nt | nt | nt
O=c1[nH]c(/C=C\c2cccc(Cl)c2)nc(O)c1[N+](=O)[O-] | -5.4 | i | -0.6 | 98.1* | -2.0 | 0.9 | -0.1 | 4.1 | -1.1 | 3.0
Cc1ccccc1CC(=O)N1CCCC(CCC(=O)N2CCN(c3ccccn3)CC2)C1 (stereo not given) | 13.9 | i | 3.2 | 5.5 | 0.3 | 2.6 | -2.7 | -7.8 | 0.0 | -0.7
COc1cc(OC)c(C(=O)OCC(=O)c2cc(C)n(CC3CCCO3)c2C)cc1OC (stereo not given) | 10.2 | i | 0.6 | -1.4 | 1.4 | 1.8 | -11.9 | 13.9 | 0.2 | 2.1
Cc1ccc2nc(C)cc(N/N=C/c3cccnc3)c2c1 | -8.3 | i | ? | 99.3* | -5.2 | 19.7 | 1.3 | -2.3 | 2.4 | -1.6
CCOC(=O)c1c(C)nc2sccn12 | 3.4 | nt | -1.4 | 1.2 | -2.3 | -1.6 | nt | nt | nt | nt
CC(C)(C)C1CCc2sc(-c3nnc(CCl)o3)cc2C1 (stereo not given) | 39.2 | i | -0.2 | 49.4 | -8.9 | -1.2 | -37.6 | -50.8 | 3.0 | 2.2
Cc1cc(NC(=O)c2ccc(Cl)cc2)no1 | -0.1 | nt | 1.6 | -5.4 | 1.1 | -6.7 | nt | nt | nt | nt
O=C(CCN1CCN(c2ccccc2)CC1)Nc1nccs1 | 13.2 | nt | -4.5 | nt | -8.7 | 54.8 | nt | nt | nt | nt
Cc1ccc(C(=O)N2CCC3(CC2)Oc2ccc(F)cc2C(=O)C32CC(c3ccccc3)=NO2)s1 (stereo not given) | 23.4 | i | -2.3 | -5.0 | 3.7 | 28.4 | 11.9 | -5.7 | 1.1 | -7.0
CCN(CC)S(=O)(=O)c1ccc(S(=O)(=O)NCc2cccs2)cc1 | 1.9 | i | 2.4 | nt | -19.0 | 4.3 | 0.2 | -4.0 | 0.5 | 0.5
O=C(NCc1ccc(F)cc1)c1noc2c1CCCC2 | 5.6 | i | -2.7 | 23.7 | -1.2 | 33.5 | 5.0 | -11.3 | -2.4 | 9.2
CCC(C)(C)NC(=O)CN(C(=O)c1snc(C(N)=O)c1N)c1ccc2c(c1)OCO2 | 28.1 | nt | 1.6 | -12.4 | -3.6 | 6.3 | nt | nt | nt | nt
CC(C)CCNC(=O)C(CC(C)C)N(Cc1ccc2c(c1)OCO2)C(=O)c1snc(C(N)=O)c1N (stereo not given) | 11.0 | i | 9.6 | -6.6 | 6.3 | 34.4 | -14.3 | -2.0 | 0.8 | 5.8
Cc1ccc(NS(=O)(=O)c2ccc(NC(=O)C3CC3)cc2)c(C)c1 | 11.9 | i | -1.5 | -11.2 | nt | -2.7 | -36.1 | -42.4 | -7.4 | 0.4
Fc1ccc(-n2c(Cc3ccccc3)nnc2SCc2nc(-c3ccc(Cl)cc3)no2)cc1 | 28.6 | nt | 1.1 | -6.4 | -6.4 | -3.8 | nt | nt | nt | nt
O=C(NCCc1ccccn1)C1CC(=O)N(Cc2ccccc2Cl)C1 (stereo not given) | -5.8 | nt | -1.5 | -2.8 | 2.8 | -0.9 | nt | nt | nt | nt
O=C(CC1SC(=Nc2ccccc2)N(CCc2c[nH]c3ccccc23)C1=O)Nc1ccccc1F (stereo not given) | 54.4 | i | 2.4 | -5.4 | -4.3 | 12.3 | 2.2 | -5.9 | 1.1 | 4.0

The list goes on, overlapping the part above by 2 compounds.
SMILES | T cruzi repl | FGF22 binding | RanGTP-Imp inh | ALR H2O2 inh | Beta apoptosis | Calb FLC | Ecoli rRNA inh | Ecoli rRNA inh OD600 | Ecoli rRNA inh RFP | AF4-AF9 inh
O=C(NCCc1ccccn1)C1CC(=O)N(Cc2ccccc2Cl)C1 (stereo not given) | -5.8 | nt | -1.5 | -2.8 | 2.8 | -0.9 | nt | nt | nt | nt
O=C(CC1SC(=Nc2ccccc2)N(CCc2c[nH]c3ccccc23)C1=O)Nc1ccccc1F (stereo not given) | 54.4 | i | 2.4 | -5.4 | -4.3 | 12.3 | 2.2 | -5.9 | 1.1 | 4.0
CCOC(=O)CNC(=O)c1ccccc1 | -19.1 | nt | 0.1 | nt | -7.8 | 1.7 | nt | nt | nt | nt
Cc1ccc(S(=O)(=O)CCc2nc3ccccc3n2CCC#N)cc1 | -4.1 | nt | -0.1 | -1.1 | -17.7 | -4.6 | nt | nt | nt | nt
CCCC(C(=O)NC1CCCC1)N(C(=O)c1snc(C(N)=O)c1N)c1ccc(F)cc1 (stereo not given) | 10.2 | i | -0.5 | nt | nt | -6.9 | 6.4 | 11.3 | 0.5 | -3.4
COC(=O)CN(C)C(=O)c1ccc(OC2CCN(S(=O)(=O)N(C)C)CC2)cc1 | -6.3 | i | -1.3 | 43.1 | nt | -1.8 | 6.4 | 1.2 | 18.5 | -0.9
CC1CCCN(C(=O)CSc2nnc(-c3ccc(S(=O)(=O)N4CCOCC4)cc3)n2C)C1 (stereo not given) | -7.8 | nt | -3.1 | -7.8 | -3.9 | -2.6 | nt | nt | nt | nt
Cc1cc(C)c2nc(N3CCCC(C(=O)N4CCN(c5ncccn5)CC4)C3)sc2c1 (stereo not given) | 11.4 | nt | 4.0 | -7.6 | 13.2 | 11.8 | nt | nt | nt | nt
O=C(CCCCCN1C(=O)c2ccccc2C1=O)Nc1ccc2c(c1)OCCO2 | -1.3 | nt | 1.3 | -3.7 | 4.3 | 1.1 | nt | nt | nt | nt
COc1cc(NC(=O)CN2CCCCC2C)c(C)cc1[N+](=O)[O-] (stereo not given) | -0.5 | nt | 1.1 | -6.4 | 2.0 | 27.0 | nt | nt | nt | nt
CC(C)(C)c1csc(Sc2ccc([N+](=O)[O-])cn2)n1 | -48.6 | i | 0.1 | -1.8 | 1.2 | -9.2 | nt | nt | nt | 3.2
Cc1cc(NC(c2cccnc2)c2ccc3cccnc3c2O)no1 (stereo not given) | 50.0 | nt | 0.6 | -3.2 | 104.0* | -4.9 | nt | nt | nt | nt
Cc1ccccc1OCC(=O)Nc1nnc(S(=O)(=O)N2CCCC2)s1 | 3.2 | i | 1.0 | nt | 4.1 | -7.3 | 1.4 | 1.4 | 1.0 | -2.9
CS(=O)(=O)N1CCC(Oc2ccccc2C(=O)N2CCCCC2CO)CC1 (stereo not given) | 1.6 | i | -2.0 | -1.2 | -0.8 | -2.5 | 15.8 | 13.8 | 1.3 | -1.3
Cc1nn(-c2ccccc2)c2sc(C(=O)N3CCCCC3)cc12 | 11.8 | nt | 0.9 | 12.0 | -1.5 | 48.3 | nt | nt | nt | nt
CCC(CO)Oc1cc(NCc2ccccc2Cl)c2ncn(C(C)C)c2c1 (stereo not given) | nt | i | nt | 16.0 | -3.3 | nt | -5.0 | -1.4 | 7.0 | 11.8
S=C(NC1CCCCC1)NC1CC2CCC(C1)N2Cc1ccccc1 (stereo not given) | 15.8 | i | -1.9 | -10.1 | -13.0 | -8.1 | -0.4 | -2.5 | -1.7 | 3.4
Cc1nn(C)c(Cl)c1C(=O)NCC(=O)O | 7.4 | nt | -2.7 | -19.4 | -2.1 | -3.4 | 16.6 | 6.0 | 7.0 | -0.5
O=C(CCNS(=O)(=O)c1cccc2nsnc12)NCc1ccco1 | -9.6 | i | -0.6 | -2.8 | -1.8 | -7.0 | 4.4 | 5.4 | -0.4 | -0.8
Cc1ccc2[nH]c(=O)c(CN(C)C(=O)c3ccccn3)cc2c1 | -8.6 | nt | 0.8 | -9.9 | -0.3 | 4.2 | nt | nt | nt | nt
Cc1ccc(N2CC(C(=O)Nc3cc(C(F)(F)F)ccc3N3CCCC3)CC2=O)cc1 (stereo not given) | -2.8 | i | 3.6 | nt | 2.6 | 23.5 | 8.6 | 10.0 | 5.1 | -6.5
Cc1cccc(N2CCN(CCNC(=O)c3cc4c(s3)CS(=O)(=O)C4)CC2)c1C | 22.9 | i | 1.5 | 1.5 | -1.4 | 17.3 | -11.7 | -8.2 | 5.3 | 4.0
O=C(COC(=O)c1ccco1)NC1CCCC1 | -14.8 | i | 1.2 | -8.6 | 4.8 | 2.2 | 5.4 | 11.2 | -1.7 | -0.2
O=C(O)c1cc2ccc3cccc4ccc(c1)c2c34 | 5.0 | i | 2.9 | -36.4 | -7.8 | -0.4 | -1.9 | -1.3 | 0.2 | -1.2
O=C(O)c1ccc[nH]c1=S | -3.9 | i | -0.7 | 35.0 | 1.4 | -2.0 | 6.9 | -5.3 | 0.5 | -9.7
